SARS PLpro yeast = qHTS of Yeast-based Assay for SARS-CoV PLP | S. cerevisiae expressing SARS-CoV PLpro, growth rescue; control for the full effect not named in the record | Potency, µM (series often up to 32.9 µM), for inactives: top-dose activity, positive = growth rescue | 0.19% of 330,000 active; active means well fitted rising curve with a large enough effect; inconclusive means small, poorly fitted or top-dose-only effect; inactive means no such curve, though single readings can be large or run the other way; further: 0% is about no effect; nearly all actives have a fitted effect of over 55% in size; growth read by luminescence after 48 h
Cruzain Triton = qHTS Assay for Promiscuous and Specific Inhibitors of Cruzain (with detergent) | purified cruzain, Z-FR-AMC fluorescence, 0.01% Triton | Potency, µM, inactives show max response, negative = inhibition, usual class: inhibitors | 0.43% of 200,000 active;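 further: plate controls were neutral wells for no effect and buffer without enzyme for full effect; nearly all actives have a fitted effect of over 40% in size; top concentration of the series not given in the record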
Target sequence (P25779 123-467 limits assumed): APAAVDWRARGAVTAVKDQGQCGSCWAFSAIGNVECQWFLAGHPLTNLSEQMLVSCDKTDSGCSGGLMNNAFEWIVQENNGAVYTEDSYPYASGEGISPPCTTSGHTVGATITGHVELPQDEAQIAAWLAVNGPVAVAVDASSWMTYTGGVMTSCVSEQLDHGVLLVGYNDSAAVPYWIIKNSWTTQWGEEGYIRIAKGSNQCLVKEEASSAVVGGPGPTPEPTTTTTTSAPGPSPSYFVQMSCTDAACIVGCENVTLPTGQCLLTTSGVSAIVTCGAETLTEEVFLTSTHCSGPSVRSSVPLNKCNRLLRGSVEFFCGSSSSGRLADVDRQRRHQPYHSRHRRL
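Compounds were screened in titration against cruzain (1.5 nM) with 0.01% Triton X-100 to counter colloidal aggregation. Activity was the AMC fluorescence increase over 60 s after adding 2 uM Z-FR-AMC at pH 5.5.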
MARV entry inh = qHTS for inhibitors of binding or entry into cells for Marburg Virus; 1.8% of 300,000 active; Potency, µM (highest dose often 37.8 µM), for the others: at the top dose activity change, negative = inhibition, most hits filed as inhibitors; Marburg virus pseudotyped entry inhibition, cell reporter; control for the full effect not named in the record; about a third of the inactives were read at about 46 µM; active = well fitted inhibition curve with a large enough effect; inconclusive = small, poorly fitted or top-dose-only effect, or effect the other way; inactive = flat fitted curve, though single readings scatter; tested in HEK293 cells; about a fifth of its hits are not listed in these tables; further: on the % scale 0 is the no-effect control and ±100 the full control effect; luciferase read-out
Cruzain inh noDet = qHTS Assay for Promiscuous and Specific Inhibitors of Cruzain (without detergent); purified cruzain, Z-FR-AMC fluorescence, no detergent; 2.3% of 200,000 active; Cruzipain (Trypanosoma cruzi), P25779; Potency, µM, without a hit: max response, negative = inhibition, usual class: inhibitors; AID 1476, 2009;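 further: plate controls were enzyme without inhibitor for no effect and buffer without enzyme for full effect; nearly all actives have a fitted effect of over 40% in size; top concentration of the series not given in the record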
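Detergent-free condition (0.00005% Triton X-100) in acetate buffer pH 5.5 with DTT. 1.5 nM enzyme and compound were pre-mixed 15 min, then 2 uM Z-FR-AMC substrate added; reaction progress from fluorescence change between first and third reads (60 s).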
RE007 growth inh = qHTS Assay for Inhibitors of the HIV-1 protein Vpr. S. pombe RE007 Vpr strain, BacTiter-Glo ATP luminescence, 24 h; control for the full effect not named in the record. Potency, µM (titrated, usually from 92.2 µM), without a hit: top-dose activity change, negative = less growth. 0.21% of 360,000 active. AID 651644, 2012; active = well fitted falling curve with a large enough effect; inconclusive = small, poorly fitted or top-dose-only effect; inactive = no such curve, though single readings can be large or run the other way;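 further: on the % scale 0 is the no-effect control and ±100 the full control effect; nearly all actives have a fitted effect of over 50% in size; the assay follows cell death caused by Vpr and the record does not say whether a fall means rescue or toxicity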
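Fission yeast RE007 carrying one integrated HIV-1 vpr copy, seeded at OD 0.01 in PMG+AL medium with 23 nL pinned compound. Grown 24 h at 30 degrees; viability read by BacTiter-Glo luminescence after 5 min.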
Lassa entry inh = qHTS for Inhibitors of binding or entry into cells for Lassa Virus; Potency, µM (top dose mostly 37.9 µM), without a hit: at the highest dose activity change, negative = inhibition, usual class: inhibitors; 1.2% of 300,000 active; Lassa virus pseudotype entry inhibition, cell reporter; control for the full effect not named in the record; active means well fitted inhibition curve with a large enough effect; inconclusive means small, poorly fitted or top-dose-only effect, or effect the other way; inactive means flat fitted curve, though single readings scatter; tested in HEK293 cells; further: on the % scale 0 is the no-effect control and ±100 the full control effect; nearly all actives have a fitted effect of over 50% in size; luciferase read-out
NS1 function inh = qHTS Assay for Inhibitors of Influenza NS1 Protein Function; AID 2326, 2010; S. cerevisiae slowed by influenza A NS1, growth recovery by OD600; 0.4% of 270,000 active; Potency, µM (series often up to 46.1 µM), for inactives: at the highest dose activity, positive = more growth; active means well fitted rising curve with a large enough effect; inconclusive means small, poorly fitted or top-dose-only effect; inactive means no such curve, though single readings can be large or run the other way; further: nearly all actives have a fitted effect of over 50% in size
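Read-out: OD600 growth recovery of NS1-expressing budding yeast. Cells grown overnight at 30C in -URA glucose medium, washed, resuspended and diluted 1:100 in 2% galactose assay medium, pH 6.0. Same strain lacking NS1 served as positive control.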
StopGo reporter = High Throughput Screening for Foot and Mouth Disease Virus Antivirals | human cells with a luciferase reporter of 2A StopGo recoding; control for the full effect not named in the record | Potency, µM (doses to about 57.9 µM), for the others: at the top dose signal change, negative = less light | 1.2% of 410,000 active; active = well fitted falling curve with a large enough effect; inconclusive = small, poorly fitted or top-dose-only effect; inactive = no such curve, though single readings can be large or run the other way; tested in HEK293T cells; further: on the % scale 0 is the no-effect control and ±100 the full control effect; nearly all actives have a fitted effect of over 45% in size; luciferase light after 4 h
Active calls of the source: *; ? = inconclusive; · = no result given; & = joins results of further samples; ! = repeats disagree; [ ] = dose if it differs, or a comment. Unless noted, the call rests on the fitted dose curve; in most records, active means well fitted curve in the direction sought with a large enough effect; inconclusive means small, poorly fitted or top-dose-only effect, or another doubt; inactive means no such curve, though single readings can be large; an effect the other way counts as inactive or inconclusive. Potency means the concentration at half of the fitted maximal effect.

smiles	SARS PLpro yeast	Cruzain Triton	MARV entry inh	Cruzain inh noDet	RE007 growth inh	Lassa entry inh	NS1 function inh	StopGo reporter
CCc1ccc(CN2CCN(C(=O)c3cccc(OC)c3OC)CC2)cc1	-4%	1.0%	?	9%	-2%	?	2%	?
CC(=O)c1cccc(NC(=O)c2ccc3c(c2)OCO3)c1	-7%	·	-5%	·	-5%	14%	-35%	4%
CN(c1ccccc1C(=O)NCc1ccccn1)S(C)(=O)=O	0%	16%	-2%	9%	30%	-19%	8%	-27%
COc1ccc(NC2=CC(=O)CC(C)(C)C2)cc1OC	2%	-4.5%	-13%	-4%	-7%	9%	9%	·
Cc1ccc2c(c1)-c1c(cnn1CC(=O)NC(C)CCc1ccco1)CO2 (stereo not given)	-3%	-5.2%	-28%	19%	-1%	-2%	15%	-21%
Cc1[nH]c(-c2ccc3c(c2)OCO3)nc1C(=O)O	-10%	6.3%	·	13%	-21%	·	-3%	7%
CC(=O)c1cc(C#N)c(Oc2ccccc2)nc1C	·	·	8%	·	-4%	11%	·	-13%
O=C(NNc1ccccc1)NC(Cc1ccccc1)C(=O)O (stereo not given)	·	·	-25%	·	-4%	19%	·	-7%
Oc1ccc(/C=N/NP(=S)(c2ccccc2)c2ccccc2)c(O)c1O	15%	-11%	13%	-2%	-5%[3.69 µM]	-1%	1%	0%
Cc1ccc(S(=O)(=O)c2cn(Cc3ccc(F)cc3)c3cc4c(cc3c2=O)OCO4)cc1	14%	-1.1%	16%	-6%	-2%	?	24%	16%
O=C(NNC(=O)c1ccncc1)Nc1ccc(N=Nc2ccccc2)cc1	·	·	3%	·	-1%	-2%	·	17%
Cc1cc(C)nc(SC2CCOC2=O)n1 (stereo not given)	·	3.9%	13%	-2%	21%	-1%	6%	-22%
N/C(=N\NC(=O)c1cccs1)c1cc2ccccc2oc1=O	-23%	-6.8%	?	-7%	11%	25%	-14%	10%
Cc1ccc(C(=O)N(CC#N)CC#N)cc1C	1%	·	-7%[46.1 µM]	·	2%	?	-3%	-9%
CC(Cc1c[nH]c2ccccc12)NC(=O)C1CCCNC1=O (stereo not given)	3%	1.3%	11%	-1%	-4%	0%	0%	·
COc1ccc(S(=O)(=O)N[C@@H](Cc2ccc(Cl)cc2)C(=O)N2CC[C@@]3(O)CCCC[C@H]3C2)cc1	3%	0.4%	0%	21%	-2%	?	-22%	0%
CCCCCn1c(=O)c(C(=O)NCc2ccccc2)c(O)c2ccccc21	-8%	·	·	·	-6%	·	4%	-25%
O=C1CCc2cc(S(=O)(=O)NCCC(=O)NC3CCCCC3)ccc2N1	-1%	·	·	·	-5%	·	-6%	-7%
CC1CN(C(=O)c2cccc(S(=O)(=O)N3CCN(c4ccc(F)cc4)CC3)c2)CC(C)O1 (stereo not given)	?	·	-29%	·	-12%	?	-10%	-24%
CC(=O)Nc1ccccc1-c1nc2ccccc2n(Cc2cccc(Br)c2)c1=O	·	-2.9%	-21%[46.1 µM]	20%	·	10%[46.1 µM]	·	-24%

Next section.
smiles	SARS PLpro yeast	Cruzain Triton	MARV entry inh	Cruzain inh noDet	RE007 growth inh	Lassa entry inh	NS1 function inh	StopGo reporter
OCCCNC(=S)Nc1ccc(Oc2ccccc2)cc1	-21%	-1.9%	17%[46.1 µM]	9%	-15%	6%	-2%	44%[activator]
O=C(O)CCN1C(=O)NC2(CCCC2)C1=O	-1%	4.9%	4%	-4%	20%	-19%	6%	-10%
Cc1ccc(CNC(=O)C(=O)NCC2OCCN2S(=O)(=O)c2ccc(C)cc2)cc1 (stereo not given)	15%	·	-29%	·	2%	?	-6%	-27%
Cn1c(C(=O)NC2CC2)cc(=O)n(C)c1=O	0%	·	23%[46.1 µM]	·	-12%	1%	3%	5%
COc1ccccc1CNC(=O)C1(c2ccc(Cl)cc2)CC1	-4%	-6.3%	-3%[46.1 µM]	-12%	0%	2%	-20%	-7%
COc1ccc(CC(=O)Nc2cc(C)c3c(=O)oc4ccccc4c3n2)cc1	-1%	-9.9%	·	15%	3%	·	-37%	-26%
Cc1c(NC(=O)c2ccc(-c3cccc([N+](=O)[O-])c3)o2)c(=O)n(-c2ccccc2)n1C	-1%	·	20%[46.1 µM]	·	-14%	9%[46.1 µM]	-4%	-7%
CC(=O)Oc1ccc2nc(-c3cccs3)oc(=O)c2c1	-5%	-3.4%	-1%	-2%	-21%	-2%	3%	18%
O=C(Nc1sc2c(c1C(=O)Nc1ccccc1)CCC2)c1ccc(Br)cc1	·	-1.0%	·	-8%	·	15%[46.1 µM]	·	-3%
CCCCCc1c2c(cc(O)c1C(=O)O)OC(=O)c1c(cc(OC)cc1C(=O)CCCC)O2	1%	-20%	·	29%	1%	·	7%	32µM*!
COc1ccc2[nH]c3c(c2c1)CCN1C(=O)C(CC(=O)NCc2ccc(OC)c(OC)c2)C[C@H](C(=O)N(C(C)C)C(C)C)[C@@]31C (stereo not given in full)	-12%	·	-3%	·	2%	·	·	-27%
Cc1nnc(SCC(=O)Nc2nccs2)n(N)c1=O	-2%	·	1%	·	-7%	-22%	·	-1%
O=C1NC(=S)SC1=Cc1ccc(Cl)cc1	·	·	2%[46.1 µM]	·	-6%	?	·	0%
c1ccc2c(N3CCCCC3)ncnc2c1	-3%	-0.3%	0%	-11%	-7%	-6%	-1%	-3%
COc1cc(/C=C(/C#N)C(=O)c2c(C)[nH]c3ccccc23)ccc1OCC#N	-2%	·	·	·	-4%	·	-38%	1%
CCN1CCN(c2cc(C)c3cc(NC(=O)c4cncc(Br)c4)ccc3n2)CC1	4%	-4.9%	?	-10%	-8%	-25%	-9%	-25%
COCCN(CCOC)c1ncc(Cl)c(C(=O)c2c(C)cc3ccccn23)n1	1%	-7.2%	-12%	?	27%	-29%	-9%	-17%
O=C(Cn1cnc2sc3c(c2c1=O)CCCC3)NCCC(=O)N1CCC2(CC1)OCCO2	5%	-1.8%	17%&17%	8%	4%	21%	-2%	12%
Cc1ccc(S(=O)(=O)N2CCCCC2)cc1NC(=O)CSc1ncnc2ccccc12	-12%	-5.9%	?	-27%	-10%	?	-27%	-16%
Cc1ccc(S(=O)(=O)NC(=O)Nc2cccc([N+](=O)[O-])c2)cc1	2%	·	10%[46.1 µM]	·	-9%	-2%	2%	10%

The listing continues:
smiles	SARS PLpro yeast	Cruzain Triton	MARV entry inh	Cruzain inh noDet	RE007 growth inh	Lassa entry inh	NS1 function inh	StopGo reporter
Cc1nn(C)c(C)c1S(=O)(=O)N1CCC(C(=O)NC2CCCCCC2)CC1	2%	0.6%	-1%	16%	3%	·	3%	-20%
COc1ccc(CC2=CC(=O)c3ccccc3C2=O)cc1	-23%	·	·	·	?	·	-117%	?
Cc1ccc(NS(=O)(=O)c2cccc(C(=O)Nc3c(C)n(C)n(-c4ccccc4)c3=O)c2)cc1	-2%	·	·	·	-5%	·	1%	-11%
CCN1CCN(Cc2cc(=O)oc3cc4c(cc23)CCC4)CC1	1%	-3.8%	0%	-7%	-20%	11%	-30%	3%
CCOC(=O)/C(=N/Nc1ccc(C)cc1)S(=O)(=O)c1ccc(Cl)cc1	-30%	-1.5%	?	-19%	-5%	7%	-6%	53%[activator]
CC(=O)Nc1ccc(S(=O)(=O)Nc2ccc3ccccc3n2)cc1	4%	·	?	·	0%	-11%[46.1 µM]	-2%	?
COc1ccc(CCNC(=O)c2nnn(-c3ccc4c(c3)OCCO4)c2N)cc1OC	26%	-5.5%	?	13%	9%	?	-14%	3.5µM*
O=C(O)c1ccccc1NS(=O)(=O)c1cccc(C(F)(F)F)c1	9%	-3.6%	8%&8%	-1%	3%	9%	11%	9%
CCOC(=O)c1c(C#N)c(SCC(=O)Nc2ccc(OC)cc2)nc2c1CN(CC)CC2	-1%	-2.6%	-2%&-6%	25µM*	-26%	4%	9%	·
COc1ccc(CNC(=O)CSc2nnnn2-c2ccccc2)cc1	5%	2.4%	9%	6%	-10%	-13%	-5%	·
COc1ccc(Nc2nc(OC)nc(OC)n2)cc1	0%	·	·	·	10%	·	-2%	27%
Cc1nc2ccccc2c2ncccc12	3%	·	·	·	-11%	·	-3%	-27%
CC(=O)NNC(=O)CN1C(=O)/C(=C/c2ccccc2)SC1=S	2%	·	·	·	8%	·	?	-9%
COCCNC(=O)CN(CC1CCCO1)C(=O)CCC(=O)Nc1ccccn1 (stereo not given)	0%	2.8%	?	-5%	-2%	4%	-1%	-6%
CCOc1cccc(-c2nnc3sc(COc4ccc(OC)cc4)nn23)c1	-10%	-2.8%	-6%	6%	13%	?	-50%	-3%
COc1cc(CCC(=O)Nc2c(C(=O)N3CCN(c4ccccc4OC)CC3)oc3ccccc23)on1	-9%	·	?	·	-2%	?	-32%	-3%
Cc1cc(C)cc(-n2nnnc2SCC(=O)Nc2nc(-c3ccc(Cl)cc3)cs2)c1	8%	4.3%	?	6.3µM*	-3%	2%	1%	·

4 entries already listed, sorted by length of the SMILES, rising:
smiles	SARS PLpro yeast	Cruzain Triton	MARV entry inh	Cruzain inh noDet	RE007 growth inh	Lassa entry inh	NS1 function inh	StopGo reporter
Cc1nc2ccccc2c2ncccc12	3%	·	·	·	-11%	·	-3%	-27%
CCN1CCN(Cc2cc(=O)oc3cc4c(cc23)CCC4)CC1	1%	-3.8%	0%	-7%	-20%	11%	-30%	3%
CC(=O)NNC(=O)CN1C(=O)/C(=C/c2ccccc2)SC1=S	2%	·	·	·	8%	·	?	-9%
Cc1nn(C)c(C)c1S(=O)(=O)N1CCC(C(=O)NC2CCCCCC2)CC1	2%	0.6%	-1%	16%	3%	·	3%	-20%

Assay outcomes: PubChem BioAssay, National Center for Advancing Translational Sciences (NCATS)
